TRPML1 inh: qHTS for Inhibitors of the Human Mucolipin Transient Receptor Potential 1 (TRPML1). Mucolipin-1 (Homo sapiens), Q9GZU1. TRPML1-inducible cells, Ca2+ dye fluorescence, FDSS; active compounds read low; inhibition of EC80 agonist-evoked calcium signal. activity change, negative = inhibition, % (test concentration not listed). 390,000 tested, 0.02% active. AID 624415, 2012; in the data active means activity change below about -50%; inconclusive means about -30% to -50%; inactive means above about -30%;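 further: stimulus is agonist 54-4 at its EC80 concentration; on the % scale 0 is the no-effect control and ±100 the full control effect; compound concentration not given in the record; the text of the record puts the active cut at -80%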
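TRPML1-DL cells, Tet-induced overnight (~16 h, 37 °C) at 1,500 cells/well, were loaded with Ca8 no-wash dye plus quencher for 45-90 min at room temperature. Compounds were pinned during FDSS kinetic reading; agonist 54-4 at EC80 (4 uM final) then added.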
gsp agonist: qHTS for Agonist of gsp, the Etiologic Mutation Responsible for Fibrous Dysplasia/McCune-Albright Syndrome: qHTS; gsp mutant cells, cAMP HTRF, 30 min; control for the full effect not named in the record; Potency, µM (highest dose often 76.9 µM), for the others: at the top dose activation (cAMP increase), actives largely listed as activators; AID 624287, 2012; 340,000 tested, 0.13% active; active = well fitted activation curve with a large enough effect; inconclusive = small, poorly fitted or top-dose-only effect, or another doubt; inactive = no such curve, though single readings can be large or run the other way; cell line not stated here;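 further: phosphodiesterase inhibitor Ro 20-1724 added with compounds to block cAMP breakdown; potency means the concentration at half of the fitted maximal effect; nearly all actives have a fitted effect of over 60% in size; about a fifth of the inactives were tested at one dose only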
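Cells in DMEM/10% FBS with G418 were pretreated with compounds in DMSO plus […] (300 uM stock) for 30 min at 37C. cAMP was measured by HTRF (cAMP-d2 plus anti-cAMP antibody-K) after 30 min at room temperature.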
TRPV1 PAM: HTS Assay for Compounds that Act as Potentiators of the Vanilloid Receptor 1; potentiation, % at 8.33 µM; TRPV1-expressing cells, Fluo-8 calcium influx, capsaicin EC20 potentiation; host cell line not named in the record; control for the full effect not named in the record; AID 540277, 2011; 320,000 tested, 0.02% active; Transient receptor potential cation channel subfamily V member 1 (Homo sapiens), Q8NER1; active means potentiation above 80%; inconclusive means 30% to 80%; inactive means below 30%; further: 0% is about no effect
Target sequence (Q8NER1 whole entry, looked up): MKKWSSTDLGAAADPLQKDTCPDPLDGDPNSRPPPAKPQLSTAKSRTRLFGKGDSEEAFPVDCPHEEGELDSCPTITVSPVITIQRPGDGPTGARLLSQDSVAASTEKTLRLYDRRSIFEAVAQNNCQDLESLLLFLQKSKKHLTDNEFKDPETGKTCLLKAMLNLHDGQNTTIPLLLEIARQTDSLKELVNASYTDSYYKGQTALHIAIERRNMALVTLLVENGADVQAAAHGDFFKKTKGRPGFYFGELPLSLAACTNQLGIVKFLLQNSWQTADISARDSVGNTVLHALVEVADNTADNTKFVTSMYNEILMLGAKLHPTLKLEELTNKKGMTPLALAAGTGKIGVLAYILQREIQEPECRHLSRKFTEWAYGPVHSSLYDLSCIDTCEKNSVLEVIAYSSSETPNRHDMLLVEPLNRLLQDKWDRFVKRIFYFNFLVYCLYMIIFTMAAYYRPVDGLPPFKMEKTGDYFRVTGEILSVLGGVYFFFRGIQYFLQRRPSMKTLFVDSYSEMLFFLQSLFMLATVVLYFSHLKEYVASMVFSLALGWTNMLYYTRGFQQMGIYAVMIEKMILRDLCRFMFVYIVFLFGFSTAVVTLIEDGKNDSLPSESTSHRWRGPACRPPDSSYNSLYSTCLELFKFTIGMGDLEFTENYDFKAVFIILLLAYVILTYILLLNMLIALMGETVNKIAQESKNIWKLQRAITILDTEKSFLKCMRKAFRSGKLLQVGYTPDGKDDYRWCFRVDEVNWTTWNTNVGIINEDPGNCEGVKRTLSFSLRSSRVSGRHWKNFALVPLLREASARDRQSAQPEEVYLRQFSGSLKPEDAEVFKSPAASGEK
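Fluo-8 calcium influx in TRPV1-expressing cells, kinetic read (ex 480/em 520 nm). Compound added and read 3 min for agonist activity, followed by capsaicin at EC20 final and 2 min further read for enhancement.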
Sfp PPTase inh: qHTS Assay for Inhibitors of Bacillus subtilis Sfp phosphopantetheinyl transferase (PPTase); 4'-phosphopantetheinyl transferase ffp (Bacillus subtilis), Q9F4F7; Biochemical Sfp PPTase activity, qHTS; Potency, µM, inactives show max response, negative = inhibition, most hits filed as inhibitors; 310,000 tested, 3.5% active; AID 1490, 2009; active means well fitted inhibition curve with a large enough effect; inconclusive means small, poorly fitted or top-dose-only effect, or another doubt; inactive means no such curve, though single readings can be large or run the other way;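 further: the enzyme is Sfp with the accession as filed and its product quenches rhodamine fluorescence; potency means the concentration at half of the fitted maximal effect; 0% = enzyme reaction without inhibitor and -100% = no enzyme wells; top concentration of the series not given in the record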
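Sfp 15 nM + cpd, 15 min RT; start w/ rhodamine-CoA 5 uM, BHQ-2-YbbR 12.5 uM (final); 50 mM Hepes pH 7.6, 10 mM MgCl2, 0.01% NP-40, 0.01% BSA; read 525/598 nm at 0 and 30 min.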
Menin-MLL FL inh: qHTS Assay for Inhibitors Targeting the Menin-MLL Interaction in MLL Related Leukemias: Competition With Fluorescein Labeled MLL-derived Peptide; Fluorescence polarization, fluorescein-MLL peptide displacement from menin; FP activity change, % at 61.4 µM; 290,000 tested, under 10 active; AID 1766, 2009; inconclusive = falling polarisation curve, or a change in total fluorescence; inactive = total fluorescence flat and polarisation flat or rising; no compound was filed as active; the % refers to the polarisation; negative = inhibition;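 further: % of control where 0% means no effect; inhibitors lower the polarisation; unlabelled MLL peptide was the positive control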
gsp antagonist: qHTS for Antagonists of gsp, the Etiologic Mutation Responsible for Fibrous Dysplasia/McCune-Albright Syndrome: qHTS; gsp-mutant cells, cAMP HTRF, 30 min; control for the full effect not named in the record; Potency, µM (doses to about 76.9 µM), for inactives: at the highest dose activity change, negative = inhibition, usual class: inhibitors; 340,000 tested, 0.4% active; AID 624288, 2012; active = falling curve of any shape with a large fitted effect; inconclusive = falling curve, mostly with a smaller effect; inactive = flat or rising curve; cell line not stated here;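 further: intracellular cAMP measured with PDE inhibitor Ro 20-1724 present during compound exposure; potency means the concentration at half of the fitted maximal effect; on the % scale 0 is the no-effect control and ±100 the full control effect; nearly all actives have a fitted effect of over 65% in size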
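Cells in G418 medium, seeded 16-24 h, 37C; buffer exchange to DPBS + 1 mM CaCl2, 0.5 mM MgCl2, 0.05% BSA; cpds in DMSO + […] (300 uM stock), 30 min 37C; HTRF cAMP detection.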
ClpP mod: qHTS Assay for Activators of ClpP. ATP-dependent Clp protease proteolytic subunit (Bacillus subtilis (strain 168)), P80244. purified B. subtilis ClpP, FRET peptide cleavage, 20 min. Potency, µM (series often up to 57.5 µM), inactives show at the top dose activity change, negative = active. 340,000 tested, 1.9% active. AID 651965, 2013; active = well fitted falling curve with a large enough effect; inconclusive = small, poorly fitted or top-dose-only effect; inactive = no such curve, though single readings can be large or run the other way; further: potency means the concentration at half of the fitted maximal effect; the source files actives as falling curves though it sought activators and does not explain the sign; nearly all actives have a fitted effect of over 65% in size; many hits overshoot -100%
Target sequence (P80244 whole entry, looked up): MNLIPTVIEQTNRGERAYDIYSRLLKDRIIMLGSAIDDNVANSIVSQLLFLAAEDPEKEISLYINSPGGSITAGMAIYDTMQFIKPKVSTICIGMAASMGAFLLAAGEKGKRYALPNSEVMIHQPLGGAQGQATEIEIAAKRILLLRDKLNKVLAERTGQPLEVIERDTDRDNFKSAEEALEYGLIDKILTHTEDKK
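Buffer: 100 mM Tris/HCl pH8, 100 mM KCl, 0.05% low protease BSA, 2.5% glycerol, 0.01% Tween-20. ClpP 10 microg/mL final; 20 min RT; delta FRET normalized to ADEP and DMSO controls.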
An asterisk follows results filed as active; ? = inconclusive; · = no result given; & = joins results of further samples; [ ] = another dose, or the depositor's remark. Not a hit list. Share with any hit: about 4.9%.

Values run as follows: ClpP mod, Sfp PPTase inh, gsp antagonist, Menin-MLL FL inh, gsp agonist, TRPV1 PAM, TRPML1 inh
> Cc1c(C)n(Cc2ccccc2)c2ncnc(NCCO)c12
    ·, 8%, 12%, -1.8, 0%, 1, 9
> CCOC(=O)c1c(C)[nH]c(C(=O)NNC(=O)c2ccccc2F)c1C
    -1.5%, ·, -2%, ·, 20%[15.4 µM], ·, -20
> Cc1ccc2c(O)c(Cc3ccccc3)c(=O)[nH]c2n1
    ·, ·, 4%, ·, -6%, ·, 14
> O=C(O)c1ccc2noc(-c3ccccc3)c2c1
    2.8%, 6%, -3%, -0.5, -25%, 23, 8
> COC(=O)NNS(=O)(=O)c1ccc(C)cc1
    -0.8%, 5%, 6%, -2.9, -1%, ?, 22
> Cc1cc(C(=O)Nc2c(F)cc(F)cc2Br)no1
    -1.0%, 14%, 3%, -0.9, 11%, 1, 5
> S=c1nc(-c2ccccc2)n(CCCn2ccnc2)c2c1CCCC2
    0.0%, 9%, 9%, 1.8, ?, 8, 1
> O=C(CN1C(=O)NC2(CCCCCCC2)C1=O)NCc1ccccc1
    1.2%, ·, 15%, ·, 18%, ·, -4
> COc1ccc(C2/C=C\CN(S(=O)(=O)c3ccc(C)cc3)C(C)C(=O)N2Cc2ccc(F)cc2)cc1 (centres undefined)
    ·, 1%, ·, 1.9, ·, ·, 45
> CC(C)C[C@H]1CN([C@@H](Cc2ccc(O)cc2)CN2CCC[C@@H]2CN2C(=O)C(=O)NC[C@@H]2Cc2ccccc2)C(=O)C(=O)N1CC1CCCCCC1
    0.5%, ·, -10%, ·, ·, ·, 19
> O=C(c1ccc([N+](=O)[O-])cc1)N1CCSC1c1cccc(Cl)c1 (centres undefined)
    ·, 6%, -7%, -4.9, 0%[15.4 µM], -20, -19
> O=S(=O)(NCc1ccco1)N1CCOCC1
    -2.9%, 14%, 10%, 6.0, ?, 9, 4
> O=S(=O)(NC(=NC1CCCC1)C(F)(F)F)c1ccccc1
    -2.9%, 5%, -5%, -4.0, 2%, 30, 3
> CCOP(=O)(OCC)C(Nc1cccc(C(F)(F)F)c1)c1ccc(Br)cc1 (centres undefined)
    ·, 0%, ·, 2.7, ·, -31, ·
> CN(CC(=O)Nc1ccccc1Cl)C(=O)COC(=O)c1ccc(Cl)cc1[N+](=O)[O-]
    1.6%, 13%, 7%, ·, -9%, 3, 3
> CCOc1ccc(NC(=O)CN2CCN(Cc3c(F)cccc3F)CC2)cc1
    0.3%, 6%, 1%, -4.6, 18%, -12, 48
> Cc1ccc(Cl)cc1N1CCN(c2cccc[n+]2C)CC1
    1.0%, -2%, 0%, 4.0, -13%[15.4 µM], -9, 33
> C[C@]12c3[nH]c4ccccc4c3CCN1C(=O)C(CC(=O)NCc1cccc(C(F)(F)F)c1)C[C@@H]2C(=O)N1CCOCC1 (some centres undefined)
    0.2%, ·, -2%, ·, ·, ·, 2
> COc1ccc(OC)c(C2C(C(N)=O)=C(C)Nc3nc(CCCO)nn32)c1 (centres undefined)
    -2.0%, 27%, 11%, -1.2, 24%, 0, 20
> O=C(CN1CCC(n2nnc3cc(F)ccc32)CC1)N1CCc2ccccc2C1
    -0.9%, 14%, -12%, -0.1, 12%, -9, 20

More records follow:
Values run as follows: ClpP mod, Sfp PPTase inh, gsp antagonist, Menin-MLL FL inh, gsp agonist, TRPV1 PAM, TRPML1 inh
> Cn1c(COc2cccc3ccccc23)nnc1SCC(=O)OC1CCCCC1
    3.5%, -10%, -30%, -0.6, -15%, 4, -14
> Cc1ccc(CSc2ncnc3c2cnn3-c2ccccc2)cc1
    25µM*, -1%, 0%, 5.8, 11%, 15, 51
> O=C(CCN1CCN(c2ccccc2)CC1)NNC(=O)Cc1c(F)cccc1Cl
    -2.1%, ·, 7%, ·, -17%[15.4 µM], -4, 10
> Cc1ccc(C)c(NC(=O)CSc2ccc(-c3cccs3)nn2)c1
    -3.1%, 4%, 0%, 4.8, -5%[15.4 µM], 15, -13
> CC1C(=O)N2CCCc3cc(NC(=O)C(=O)NCCc4c[nH]c5ccccc45)cc1c32 (centres undefined)
    1.2%, ·, -14%, ·, -1%, -1, -1
> Cc1ccc(NC(=O)Cn2nnc(C(=O)NCc3cccs3)c2N)cc1Cl
    1.0%&0.5%, 20%, 3%, 2.9, 14%, 0, 5&-10
> COc1ccccc1NC(=O)CSc1nnc(Cn2cnc3ccccc32)n1C
    1.1%, 17%, 3%, 0.5, 13%, 5, 21
> CC(=O)CCn1cc([N+](=O)[O-])nc1C
    ·, 24%, 2%, -1.0, 17%[15.4 µM], -24, -6
> O=C(Nc1cccc(Br)c1)c1ccc(CN2CCc3ccccc3C2)cc1
    -18%, 9%, 1%, -3.9, -8%, -1, 19
> Cc1nn2cnnc2c(C)c1Cc1c(F)cccc1Cl
    -0.5%, -3%, 11%, 9.6, -3%[15.4 µM], ?, -3
> CC1Cc2nc(SCC(=O)Nc3nc4ccccc4s3)n(C)c(=O)c2S1 (centres undefined)
    1.6%, 3%, ?, 5.2, -71%[inhibitor], 22, 20
> O=C(NCc1ccncc1)C(=O)C1C(=O)Nc2ccccc21 (centres undefined)
    -3.9%, 7%, -10%, -3.3, 11%, 14, -12
> CCN1CCC(NCCc2ccc(F)cc2)CC1
    0.9%, 3%, 13%, 1.4, 14%, -1, 12
> CCOc1cc(C)c(S(=O)(=O)N2CCCC2)cc1C
    1.0%, -5%, -8%, -0.8, 9%, -7, -7
> CN(C)c1ccc(/C=C(\NC(=O)c2ccccc2)C(=O)NCc2ccncc2)cc1
    ·, 5%, -16%, 5.7, -4%[15.4 µM], 0, 14
> O=C1OCc2cccc3cccc1c23
    -3.8%, 11%, 11%, 0.2, -56%[inhibitor], -7, 6
> O=C(Nc1cccc([N+](=O)[O-])c1)NC1CCS(=O)(=O)C1 (centres undefined)
    2.9%, 0%, 6%, -0.5, -16%, 4, 7
> O=C(CCN1C(=O)/C(=C/c2ccc3c(c2)OCO3)SC1=S)Nc1cccc(C(=O)O)c1
    -23%, -1%, 1%, ?, 10%[15.4 µM], 4, -14
> O=C(N/N=C/c1ccc(O)cc1O)/C(=C/c1ccccc1)CCO
    2.5%, 26%, -6%, 11, 11%[15.4 µM], 3, -13
> CC(NC1CCCC1)c1ccccc1 (centres undefined)
    -11%, 1%, 14%, -3.5, -2%[15.4 µM], -11, 2

(list continues)
Values run as follows: ClpP mod, Sfp PPTase inh, gsp antagonist, Menin-MLL FL inh, gsp agonist, TRPV1 PAM, TRPML1 inh
> O=C(COc1cc(F)ccc1[N+](=O)[O-])NCCCc1ccccc1
    ·, 3%, -12%, -6.6, -6%[15.4 µM], -1, 5
> O=C(NC(Cc1ccccc1)C(=O)OCC(=O)N1CCc2ccccc21)c1ccco1 (centres undefined)
    0.3%, 4%, -5%, -1.5, 18%, 9, 6
> O=C(NCc1ccc(F)cc1)c1ccc(CS(=O)(=O)Cc2ccccc2F)o1
    0.9%, -10%, -24%, 7.6, 6%, -15, -11
> Cc1cc(C2C(C#N)=C(N)OC3=C2C(=O)CCC3)c(C)s1 (centres undefined)
    -1.3%, 18%, -25%, 1.4, 7%, 12, 3
> [O-][n+]1c2ccccc2[n+]([O-])c2cc(O)ccc21
    -1.0%, ?, ?, -2.6, -16%[15.4 µM], 10, 1
> O=C(NCCSCc1ccco1)c1ccc(CN2CCOCC2)cc1
    -7.5%, 3%, 3%, -0.3, -35%[inhibitor], -6, 4
> COc1cc(S(=O)(=O)NCC(c2ccco2)N2CCCCC2)ccc1NC(C)=O (centres undefined)
    -3.2%, ·, 10%, ·, 2%, 0, 18
> Cc1ccc(-c2nnc(SCc3nc4ccccc4[nH]3)n2Cc2ccco2)cc1
    -2.2%, -11%, -7%, 3.3, ?, -13, 2

A run of entries from further up:
Values run as follows: ClpP mod, Sfp PPTase inh, gsp antagonist, Menin-MLL FL inh, gsp agonist, TRPV1 PAM, TRPML1 inh
> Cc1c(C)n(Cc2ccccc2)c2ncnc(NCCO)c12
    ·, 8%, 12%, -1.8, 0%, 1, 9
> CCOC(=O)c1c(C)[nH]c(C(=O)NNC(=O)c2ccccc2F)c1C
    -1.5%, ·, -2%, ·, 20%[15.4 µM], ·, -20
> Cc1ccc2c(O)c(Cc3ccccc3)c(=O)[nH]c2n1
    ·, ·, 4%, ·, -6%, ·, 14
> O=C(O)c1ccc2noc(-c3ccccc3)c2c1
    2.8%, 6%, -3%, -0.5, -25%, 23, 8
> COC(=O)NNS(=O)(=O)c1ccc(C)cc1
    -0.8%, 5%, 6%, -2.9, -1%, ?, 22
> Cc1cc(C(=O)Nc2c(F)cc(F)cc2Br)no1
    -1.0%, 14%, 3%, -0.9, 11%, 1, 5
> S=c1nc(-c2ccccc2)n(CCCn2ccnc2)c2c1CCCC2
    0.0%, 9%, 9%, 1.8, ?, 8, 1
> O=C(CN1C(=O)NC2(CCCCCCC2)C1=O)NCc1ccccc1
    1.2%, ·, 15%, ·, 18%, ·, -4
> COc1ccc(C2/C=C\CN(S(=O)(=O)c3ccc(C)cc3)C(C)C(=O)N2Cc2ccc(F)cc2)cc1 (centres undefined)
    ·, 1%, ·, 1.9, ·, ·, 45
